Bioassay records (PubChem BioAssay)
miR-21 reporter: qHTS Assay for Modulators of miRNAs and/orActivators of miR-21; 340,000 tested, under 10 active; HeLa miR-21 FLuc reporter, luciferase, 48 h; Potency, µM (series often up to 38.3 µM), without a hit: at the highest dose reporter change, positive = more light; active = well fitted rising curve with a large enough effect; inconclusive = small, poorly fitted or top-dose-only effect; inactive = no such curve, though single readings can be large or run the other way;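 further: % of control where 0% means no effect; miR-21 action dims this reporter so a rising signal means less miR-21 action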
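Using DMEM plus 10% FBS, HeLa miR-21-FLuc cells are incubated with test compounds (final up to about 40uM) for 48 hours; firefly luciferase signal is then imaged following reagent-mediated lysis.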
Starred values were filed as active, the others as inactive; ? = inconclusive.

SMILES	miR-21 reporter
COC(=O)c1ccc(Oc2nc3c(c(=O)n(C)c(=O)n3C)n2Cc2ccc(Cl)c(Cl)c2)cc1	2%
Cc1ccc(-n2c(=O)c3c(c4cc(C)ccc4n3C)n(Cc3ccc(F)cc3)c2=O)cc1	-7%
COc1ccc(OC)c(NS(=O)(=O)c2ccc3[nH]c4c(c3c2)CCCCC4)c1	13%
COc1ccc(NC(=O)CCCOc2cc(=O)n(C)c3ccccc23)c(OC)c1	23%
COc1cc(CN2CCc3nc(N4CCN(c5ncccn5)CC4)ncc3C2)cc(OC)c1OC	24%
Cc1ccc(CCNC(=O)CS(=O)Cc2nc(-c3ccccc3C)oc2C)cc1 (stereo unspecified)	6%
Cc1cccc(OC(=O)CSc2nnc(-c3cccs3)o2)c1C	0%
CCc1nn(CC(=O)Nc2c(C)cc(C)cc2C)c(=O)c2cc3sccc3n12	-7%
O=C(NCc1cccc(Cl)c1)c1cc2c(s1)-c1ccccc1SC2	9%
Cc1ccc(SCC(=O)Nc2ccc3oc(-c4ccccc4F)nc3c2)cc1	-21%
CC(C)c1ccc(Cc2cnc(NC(=O)c3ccc4c(c3)CC(c3ccccc3)OC4=O)s2)cc1 (stereo unspecified)	12%
CC(C)CCn1c(=O)c2cccnc2n(CC(=O)Nc2ccccc2F)c1=O	-2%
Cc1cc(C)cc(-n2c(SCC(=O)N3CCC(C)CC3)nc3c([nH]c4ccccc43)c2=O)c1	-4%
Cc1cccc(N(C)C(=O)C2CCC(CNS(=O)(=O)c3cccc4nsnc34)CC2)c1 (stereo unspecified)	9%
Cn1c(=O)n(-c2cccc(Cl)c2)c(=O)c2sc3ccccc3c21	-1%
COc1cc(OC)cc(C(=O)Nc2ccc3nc(N4CCCCC4)cc(C)c3c2)c1	8%
Cc1c2cnn(CC(=O)NCc3ccc(F)cc3)c(=O)c2c(C)n1Cc1ccccc1F	-2%
Cc1c(Nc2nc3ccccc3n3c(C)nnc23)cccc1C(=O)O	-7%
Cc1ccc(NC(=O)CN2C(=O)C(c3ccccc3)=NC23CCCCC3)cc1C	25%
Cc1sc2ncn(CC(=O)N3CCN(c4ccc(Cl)cc4)CC3)c(=O)c2c1S(=O)(=O)N1CCN(c2ncccn2)CC1	22%
CCCNC(=O)Cn1nc(C)c2c(C)n(-c3ccccc3)nc2c1=O	-1%
COc1cccc(C2=C(C(C)=O)Sc3nnc(C4CCCCC4)n3N2C(C)=O)c1	?
Cc1ccc(CNC(=O)CSc2ncc3c(n2)-c2ccc(Cl)cc2N(Cc2ccccc2)S3(=O)=O)cc1	-3%
CCc1cccc(N2C(=O)CSC23C(=O)N(Cc2ccccc2F)c2ccccc23)c1 (stereo unspecified)	?
CCOc1ccc(N(C)C(=O)C2CCN(S(=O)(=O)c3ccc4c(c3)CCCN4C(C)=O)CC2)cc1	7%
COc1ccc(-n2nc(C(=O)N3CCCCC3C)c3c4ccccc4n(C)c3c2=O)cc1Cl (stereo unspecified)	-3%
CCOC(=O)c1cnc2ccc(OC(F)(F)F)cc2c1Nc1ccccc1C(=O)O	-2%
Cc1ccc(CCNC(=O)c2ccc3c(c2)N(Cc2ccc(F)cc2)CCS3)cc1	6%
Cc1cc(C)cc(OCc2cc(=O)n3c4c(sc3n2)CCCC4)c1	-5%
CCCCN(CC)C(=O)CCn1c(=O)c2cccn2c2cccnc21	0%
Cc1cccc(-n2c(=O)c3c(c4cc(C)ccc4n3C)n(CC(=O)Nc3ccccc3Cl)c2=O)c1	-1%
O=C(CSc1n[nH]c(-c2ccccc2)n1)NCCCc1ccccc1	-1%
CSc1nc(-c2ccccc2Cl)nc2c1Cc1c(CO)cnc(C)c1O2	-2%
Cc1cccc(C)c1OCc1cc(=O)n2c3c(sc2n1)CCCC3	-10%
Cc1ccc2oc(C(=O)Nc3ccc(S(=O)(=O)N4CCCCC4C)cc3)cc(=O)c2c1 (stereo unspecified)	-4%
COc1ccccc1NC(=O)CN1C(=O)C(C)(C)c2ccccc21	-5%
CCOc1ccc2c(c1)c(=O)c(C(=O)c1ccccc1)cn2Cc1ccccc1F	2%
O=C1SC(Nc2ccc(Cl)cc2)C(=O)N1Cc1ccccc1 (stereo unspecified)	0%
CCN(c1ccccc1)S(=O)(=O)c1ccc(C(=O)N(CCN(C)C)c2nc3c(F)cc(F)cc3s2)cc1	-7%
CCOc1ccccc1N(CC(=O)N1CCc2ccccc2C1)S(=O)(=O)c1ccccc1	-1%
COc1ccc(S(=O)(=O)N2CCC(Oc3cccc(C(F)(F)F)c3)CC2)cc1OC	3%
CC1CCCCN1Cc1c(O)ccc2c(=O)c(-c3cccc(Cl)c3)c(C(F)(F)F)oc12 (stereo unspecified)	5%
O=c1c2oc3ccccc3c2n(Cc2ccccc2F)c(=O)n1Cc1ccc2c(c1)OCO2	0%
Cc1ccc(NC(=O)Cn2c(=O)n(Cc3ccccc3)c(=O)c3c2c2cc(C)ccc2n3C)cc1	-3%
O=C(Nc1cc(Cl)ccc1Cl)c1cc2nc(-c3ccc4c(c3)OCO4)cc(C(F)(F)F)n2n1	-6%
CC(=O)c1ccc(S(=O)(=O)Nc2cccc(-c3ccc(N4CCCC4)nn3)c2)cc1	-11%
Cc1cccc(-n2c3c(cc(-c4nc(-c5ccc(Cl)cc5)cs4)c2=O)C(=O)CC(C)(C)C3)c1	-3%
CCc1ccc(C(=O)c2cn(CC(=O)NCc3ccc(C)cc3)c3nc(C)ccc3c2=O)cc1	4%
COc1ccc(C2NC(=O)N(C)C3=C2C(=O)N(c2ccc(C(=O)O)cc2)C3)cc1 (stereo unspecified)	2%
Cc1cc(C(=O)NCCc2ccc(Cl)cc2)c2c(C)nn(-c3cccc(F)c3)c2n1	-1%

Other compounds follow.
SMILES	miR-21 reporter
CC1CCN(c2nc3c(S(=O)(=O)c4ccccc4)nnn3c3ccc(Cl)cc23)CC1	5%
CCC(=O)Nc1ccc(C)cc1-c1nc2ccccc2n(Cc2ccccc2)c1=O	0%
O=C(NCCc1ccccc1Cl)c1sc2ncccc2c1-n1cccc1	?
CCOc1cc2[nH]c(=O)n(Cc3ccc(C(=O)N4CCN(c5cccc(Cl)c5)CC4)cc3)c(=O)c2cc1OCC	8%
COC(=O)c1ccc(-c2nc(-c3ccc(OC)c(OC)c3)no2)cc1	-10%
CCOc1ccc(NC(=O)CSc2nc3ccsc3c(=O)n2CCCCCC(=O)O)cc1	-16%
CCOC(=O)c1cc2c(=O)n3ccccc3nc2n(CC2CCCO2)c1=NC(=O)c1cc(C)cc(C)c1 (stereo unspecified)	?
O=C(Nc1nnc2n1CCS2)c1ccccc1	-26%
Cc1ccc(-c2noc(CNC(=O)c3ccc(C)c(Cl)c3)n2)cc1	1%
Cc1c(NC(=O)Cc2ccccc2)cccc1-c1nc2cccnc2s1	-32%

Next section; it opens with the six that closed the last part.
SMILES	miR-21 reporter
COC(=O)c1ccc(-c2nc(-c3ccc(OC)c(OC)c3)no2)cc1	-10%
CCOc1ccc(NC(=O)CSc2nc3ccsc3c(=O)n2CCCCCC(=O)O)cc1	-16%
CCOC(=O)c1cc2c(=O)n3ccccc3nc2n(CC2CCCO2)c1=NC(=O)c1cc(C)cc(C)c1 (stereo unspecified)	?
O=C(Nc1nnc2n1CCS2)c1ccccc1	-26%
Cc1ccc(-c2noc(CNC(=O)c3ccc(C)c(Cl)c3)n2)cc1	1%
Cc1c(NC(=O)Cc2ccccc2)cccc1-c1nc2cccnc2s1	-32%
CCCCNC(=O)CSc1nc2ccccc2nc1Cc1ccc(C)cc1	0%
CCOc1ccc(C2C(C(=O)Nc3ccccc3)=C(C)Nc3nc(-c4ccccc4Cl)nn32)cc1OC (stereo unspecified)	-1%
COc1ccc(-c2nc(C(=O)Nc3ccc(C(C)=O)cc3)nn2-c2cccc(Cl)c2)cc1	20%
Cc1cccc(-c2nc(CSc3nncn4c3cc3oc(C)cc34)c(C)o2)c1	-3%
CC1(C)N=C(SCc2ccc(F)cc2)c2ccccc2N1	?
COc1ccccc1Nc1nc(-c2ccccc2)c(CC(=O)O)s1	-22%
COc1cccc(CNC(=O)c2ccc(Cn3c(SCc4ccccc4)nc4cccnc43)cc2)c1	-3%
CCCCN(C)CCNC(=O)c1cc(=O)[nH]c2ccc(S(=O)(=O)N3CCCCCC3)cc12	1%
Cc1cc(Br)ccc1NC(=O)C1(S(=O)(=O)c2ccc(Cl)cc2)CC1	-9%
COc1cccc(C(=O)N(Cc2cccnc2)c2nc3c(OC)ccc(C)c3s2)c1OC	22%
COc1ccc(CCNC(=O)c2ccc(Cn3c(=O)c4ccccc4n(Cc4cccc(F)c4)c3=O)cc2)cc1OC	0%
O=C(Nc1ccc2oc(-c3ccc(Br)cc3)nc2c1)c1cc2ccccc2o1	-27%
Cc1noc(Cn2c(=O)c3ccccc3n(CC(=O)Nc3ccc(Cl)cc3)c2=O)n1	10%
CC(C)CCc1c(O)nc(SCC(=O)N2CCCCCC2)[nH]c1=O	10%
CCOc1ccc(C(=O)c2cnc3ccc(Cl)cc3c2S(=O)(=O)c2ccc(C)cc2)cc1	1%
COc1ccc(-c2nc3ccccc3o2)cc1NC(=O)c1ccc(-c2ccc(C)c(Cl)c2)o1	-11%
O=C(CCNS(=O)(=O)c1ccc2c(c1)CCN2C(=O)C1CC1)Nc1ccc(F)cc1F	1%
Cc1ccc(-c2nn(CC(=O)Nc3cccc(C(F)(F)F)c3)c(=O)c3ccccc23)cc1	16%
Cc1ccc(Nc2nc3ccccc3c3nncn23)c(Cl)c1	-2%
COc1cccc(C(=O)CN2CCN(S(=O)(=O)c3ccc(Cl)cc3)CC2)c1	-4%

Part of the list above in order of number of heavy atoms, highest first.
SMILES	miR-21 reporter
Cc1ccc(NC(=O)Cn2c(=O)n(Cc3ccccc3)c(=O)c3c2c2cc(C)ccc2n3C)cc1	-3%
O=c1c2oc3ccccc3c2n(Cc2ccccc2F)c(=O)n1Cc1ccc2c(c1)OCO2	0%
COC(=O)c1ccc(-c2nc(-c3ccc(OC)c(OC)c3)no2)cc1	-10%
Cn1c(=O)n(-c2cccc(Cl)c2)c(=O)c2sc3ccccc3c21	-1%
O=C(Nc1nnc2n1CCS2)c1ccccc1	-26%

Next section:
SMILES	miR-21 reporter
CC(CNC(=O)c1ccc2c(c1)nc1n2CCCCC1)c1ccccc1 (stereo unspecified)	-22%
CSc1cccc(NC(=O)c2cnn(-c3ccc(F)cc3)c2-n2cccc2)c1	?
COc1ccc(OC)c(CCNC(=O)c2cc3cccc4c3n2CCS4)c1	8%
COc1ccc(CNC(=O)c2ccc3c(c2)nc2n3CCC(C)C2)c(OC)c1 (stereo unspecified)	-22%
CCOC(=O)N1CCc2c(sc3c2c(=O)n(-c2ccc(CC)cc2)c(=O)n3CC(=O)Nc2ccc(C)cc2)C1	1%
COc1ccc(CNC(=O)CN2C(=O)CSc3ccc(S(=O)(=O)N4CCCC4)cc32)cc1	-2%
Cc1cccc(NC(=O)C2CCN(S(=O)(=O)c3ccc4c(c3)CCCC(=O)N4)CC2)c1	7%
Cc1ccc(CSc2oc(-c3cccs3)nc2S(=O)(=O)c2ccc(C)cc2)cc1	2%
Cc1ccc(Oc2c(C(F)(F)F)oc3c(CN4CCC(C)CC4)c(O)ccc3c2=O)cc1	-2%
Cc1ccc(C(=O)CSc2ncc3c(n2)-c2ccccc2N(Cc2ccc(Cl)cc2)S3(=O)=O)cc1	-1%
O=C(CN1CCN(C2CCCCC2)C(=O)C1=O)Nc1ccc(Cl)cc1	-2%
O=C(Cn1cnc2onc(-c3ccc(F)cc3)c2c1=O)Nc1cccc(C(F)(F)F)c1	?
Cc1cccc(NC(=O)CN2C(=O)COc3ccc(S(=O)(=O)Nc4ccccc4)cc32)c1C	0%
CCCCN(Cc1ccccc1)S(=O)(=O)c1ccc2c(c1)CCN2C(=O)C1CCC1	-4%
CCN1C(=NCc2cc(OC)c(OC)c(OC)c2)N[C@@H](c2cccc(F)c2)C(C(=O)OC)=C1C	5%
O=C(CCc1cn(Cc2ccc(F)cc2)c2ccccc12)NCCc1ccc(Cl)cc1	-10%
CCn1c(=N)n(CCOc2ccc(Br)cc2)c2ccccc21	?
COc1ccccc1CNC(=O)c1cnc2sc(N3CCCCC3)nn2c1=O	-1%
CCn1c(=O)c2sccc2n2c(CCCC(=O)N3CCN(c4ccc(F)cc4)CC3)nnc12	10%
Cc1ccc(-c2nc3c(c(SCC(=O)Nc4ccccc4Cl)n2)Cc2c(CO)cnc(C)c2O3)cc1	3%
CCC(=O)N1CCc2cc(Br)cc(S(=O)(=O)N3CCCC(C(=O)Nc4ccc(OC)c(Cl)c4)C3)c21 (stereo unspecified)	-2%
CCOC(=O)c1c(S(=O)(=O)N2CCCC(C(=O)Nc3cc(C)ccn3)C2)c(C)n(C)c1C (stereo unspecified)	8%
COc1ccc(-n2ncc3c2ncn2nc(COc4ccc(Cl)cc4)nc32)cc1	2%
COC(=O)c1sccc1S(=O)(=O)N1CCN(c2ccc(C)cc2C)CC1	-4%
COc1ccc(-c2cn3c(C)c(C(=O)Nc4cc(C)cc(C)c4)sc3n2)cc1	-3%
CCCn1c(=NC(=O)c2cc3ccccc3o2)c(C(=O)OCC)cc2c(=O)n3ccccc3nc21	-6%
Cc1ccc(-c2nc3ccccc3s2)cc1NC(=O)COc1ccccc1	-24%
CCc1cc(=O)oc2cc(C)c3c(-c4ccc(F)cc4)coc3c12	-3%
O=C(CN1CCCN(Cc2ccccc2F)S1(=O)=O)Nc1ccc(F)c(Cl)c1	1%
O=C(c1ccco1)N1CCN(c2nc3ccc(Cl)cc3s2)CC1	-26%
COc1c(Cl)cc(Cl)cc1/C=C(\C#N)c1nc2ccccc2[nH]1	10%
O=C(Nc1cc2c(cc1C(=O)c1ccccc1Cl)OCCO2)c1ccc(Br)cc1	3%
Cc1cc(C)c(NC(=O)CSc2cn(CC(=O)N3CCOCC3)c3ccccc23)c(C)c1	7%
CCOC(=O)c1ccc(NC(=O)CCc2c(C)nc3c(-c4ccc(F)cc4)c(C)nn3c2C)cc1	4%

The list is partial, so the mix of outcomes need not match the whole.
